Compound activity (PubChem)
STAT3 SMM = STAT3 binders, primary screen, biochemical, small molecule microarray, single point, set 2. His-STAT3 binding, anti-His fluorescence. calls only. 17,000 compounds, 0.2% hits;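 active = compounds whose four printed spots each show fluorescence over background unusually high for their array block, chance value under 7%; compounds were printed on slides so no solution concentration is given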;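 note: about 2 pmol printed per array spot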
p53 mut binder = binders of human mutant p53, primary screen, biochemical, small molecule microarray, anti-GST fluorescence; mutant tumor protein p53 (GST-tagged), Homo sapiens; small molecule microarray binding; calls only; 17,000 compounds, 0.4% hits; AID 624136, 2012;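 active = compounds whose four printed spots each glow above background more than chance allows, each with a p-value under 7%; compounds were printed on slides so no solution concentration is given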;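 note: about 2 pmol printed per array spot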
ID4 SMM = binders of human ID4 protein, primary screen, biochemical, small molecule microarray, single point; calls only; DNA-binding protein inhibitor ID-4 (Homo sapiens), P47928; Flag-ID4 binding, fluorescence F/B; 31,000 compounds, 1.2% hits;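 active = spot signal over background at p below 0.07 in all four prints; compounds were printed on slides so no solution concentration is given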;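 note: a binder raises fluorescence above local background on the spot; about 2 pmol printed per array spot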
Target sequence (P47928 whole entry, looked up): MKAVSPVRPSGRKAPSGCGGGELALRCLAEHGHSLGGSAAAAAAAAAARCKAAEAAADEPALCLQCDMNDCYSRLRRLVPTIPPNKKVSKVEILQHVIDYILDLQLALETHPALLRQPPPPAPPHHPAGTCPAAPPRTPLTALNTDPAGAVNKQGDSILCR
Myc binder = binders of human c-Myc, primary screen, biochemical, small molecule microarray, anti-His fluorescence | His-c-Myc binding | calls only | 17,000 compounds, 1.5% hits;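 active = spot fluorescence over background with P-value below 7% in all four replicate spots, showing protein binding; compounds were printed on slides so no solution concentration is given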;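 note: score is binary with 100 for all four spots passing and 0 otherwise; about 2 pmol printed per array spot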
Target sequence (P01106 whole entry, looked up): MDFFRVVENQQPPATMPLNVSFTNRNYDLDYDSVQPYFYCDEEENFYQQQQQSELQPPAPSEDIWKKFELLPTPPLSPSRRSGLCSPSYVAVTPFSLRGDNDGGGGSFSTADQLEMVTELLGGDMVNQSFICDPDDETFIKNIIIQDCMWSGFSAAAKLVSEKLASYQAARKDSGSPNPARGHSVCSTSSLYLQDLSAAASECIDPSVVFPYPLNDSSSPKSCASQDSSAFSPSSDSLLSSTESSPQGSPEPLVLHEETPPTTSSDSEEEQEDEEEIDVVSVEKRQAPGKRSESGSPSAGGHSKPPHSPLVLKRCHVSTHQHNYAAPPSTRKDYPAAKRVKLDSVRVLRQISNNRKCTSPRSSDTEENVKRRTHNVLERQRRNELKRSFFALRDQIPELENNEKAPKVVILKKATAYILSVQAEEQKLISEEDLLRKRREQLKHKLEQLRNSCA
Calls only; i = inactive; . = no result given; + = active, no number. Some of the compounds tested, so the mix of outcomes need not match the whole.

structure	p53 mut binder	Myc binder	ID4 SMM	STAT3 SMM
CC(C)NC(=O)Nc1ccc2c(c1)C(=O)N([C@@H](C)CO)C[C@@H](C)[C@@H](CN(C)Cc1ccc(C(=O)O)cc1)OCCCC[C@H](C)O2	i	i	i	i
COc1ccc2c(=O)c(-c3ccc(OC)c(OC)c3)coc2c1	i	i	i	i
COc1ccc(NC(=O)N(C)C[C@@H]2Oc3ccc(NC(=O)CCC(F)(F)F)cc3C(=O)N([C@H](C)CO)C[C@@H]2C)cc1	i	i	.	i
C[C@H]1CN([C@@H](C)CO)C(=O)c2cccc(NC(=O)c3ccncc3)c2O[C@@H]1CN(C)Cc1ccc(Cl)c(Cl)c1	i	i	i	i
C[C@@H]1CCCCO[C@@H](CN(C)C(=O)Nc2ccc(F)cc2)[C@H](C)CN([C@H](C)CO)C(=O)c2cc(NS(=O)(=O)c3ccccc3)ccc2O1	i	i	i	i
C[C@@H]1CN([C@@H](C)CO)C(=O)c2cccc(NC(=O)C3CCOCC3)c2O[C@H]1CN(C)Cc1ccc(C(F)(F)F)cc1	i	i	i	i
C[C@H](CO)N1C[C@H](C)[C@@H](CN(C)C(=O)c2ccccc2)OCCCC[C@H](C)Oc2ccc(NS(=O)(=O)c3ccc(F)cc3)cc2C1=O	i	i	.	i
CNC[C@@H]1Oc2c(NS(=O)(=O)c3cn(C)cn3)cccc2C(=O)N([C@H](C)CO)C[C@H]1C	i	i	i	i

Complete entries, quoted from the list:
Record of `CC(C)NC(=O)Nc1ccc2c(c1)C(=O)N([C@@H](C)CO)C[C@@H](C)[C@@H](CN(C)Cc1ccc(C(=O)O)cc1)OCCCC[C@H](C)O2` → p53 mut binder: i; Myc binder: i; ID4 SMM: i; STAT3 SMM: i
Record of `COc1ccc(NC(=O)N(C)C[C@@H]2Oc3ccc(NC(=O)CCC(F)(F)F)cc3C(=O)N([C@H](C)CO)C[C@@H]2C)cc1` → p53 mut binder: i; Myc binder: i; ID4 SMM: .; STAT3 SMM: i

(continued)
structure	p53 mut binder	Myc binder	ID4 SMM	STAT3 SMM
COc1ccc(CN(C)C[C@@H]2Oc3ccc(NS(=O)(=O)c4ccc(Cl)cc4)cc3C(=O)N([C@H](C)CO)C[C@@H]2C)cc1	i	i	i	i
Cc1ccc(S(=O)(=O)Nc2ccc3c(c2)C(=O)N([C@H](C)CO)C[C@H](C)[C@H](CN(C)CC2CCCCC2)OCCCC[C@H](C)O3)cc1	i	i	.	i
Cc1n[nH]c(C)c1SCC(=O)Nc1ccc(F)cc1	i	i	i	i
Cc1noc(C)c1S(=O)(=O)Nc1ccc2c(c1)C(=O)N([C@H](C)CO)C[C@H](C)[C@@H](CN(C)C(=O)Nc1ccccc1)OCCCC[C@H](C)O2	i	i	i	i
C[C@@H]1CCCCO[C@H](CN(C)S(=O)(=O)c2ccc(F)cc2)[C@H](C)CN([C@H](C)CO)C(=O)c2cc(NS(=O)(=O)c3ccc(Cl)cc3)ccc2O1	i	i	.	i
C[C@@H]1CN([C@@H](C)CO)C(=O)c2cc(NS(C)(=O)=O)ccc2O[C@@H](C)CCCCO[C@H]1CN(C)S(=O)(=O)c1cccs1	i	i	+	i
COc1cccc(S(=O)(=O)N(C)C[C@H]2OCc3cnnn3CCCC(=O)N([C@@H](C)CO)C[C@@H]2C)c1	i	i	.	i
C[C@H](CO)N1C[C@H](C)[C@@H](CN(C)Cc2ccncc2)Oc2ccc(N(C)C)cc2C1=O	i	i	i	i

structure	p53 mut binder	Myc binder	ID4 SMM	STAT3 SMM
Cc1noc(C)c1NC(=O)N(C)C[C@H]1Oc2ccc(NC(=O)NC(C)C)cc2CC(=O)N([C@@H](C)CO)C[C@H]1C	i	i	i	i
COC(=O)C1=C(C)Nc2ncnn2C1c1ccc(OCC(=O)N2CCOCC2)c(OC)c1 (configuration not stated)	i	i	i	i
COc1cc2c(c(OC)c1OC)CCc1cc(O)c(O)cc1-2	i	i	.	i
O=C(O)Cn1nnnc1-c1ccc(F)cc1	i	+	i	i
C[C@@H]1CN([C@H](C)CO)C(=O)c2cccc(NS(=O)(=O)c3cn(C)cn3)c2O[C@H]1CN(C)S(=O)(=O)c1ccc(Cl)cc1	i	i	.	i
O=S(=O)(NC1CCN(Cc2ccc(OCCO)cc2)CC1)c1cccc2cccnc12	i	i	i	i
C[C@@H]1CCCCO[C@H](CN(C)S(C)(=O)=O)[C@@H](C)CN([C@H](C)CO)C(=O)c2cc(NS(=O)(=O)c3ccccc3)ccc2O1	i	i	i	i
CC(C)NC(=O)N(C)C[C@@H]1Oc2ccc(NS(=O)(=O)c3cccs3)cc2CC(=O)N([C@H](C)CO)C[C@@H]1C	i	i	i	i

structure	p53 mut binder	Myc binder	ID4 SMM	STAT3 SMM
C[C@H]1CN([C@@H](C)CO)C(=O)Cc2cc(NC(=O)C3CC3)ccc2O[C@H]1CN(C)C(=O)Nc1ccc(F)cc1	i	i	i	i
COc1ccc(CN(C)C[C@@H]2OCCCC[C@H](C)Oc3ccc(NC(=O)Nc4c(C)noc4C)cc3C(=O)N([C@@H](C)CO)C[C@H]2C)cc1	i	i	i	i
COc1ccc(S(=O)(=O)N(C)C[C@H]2Oc3ccc(NS(C)(=O)=O)cc3CC(=O)N([C@@H](C)CO)C[C@H]2C)cc1	i	i	i	i
COCCOC(=O)N1C(=O)[C@@]2(c3cc(C#Cc4ccc(OC)cc4)ccc31)[C@H](c1ccc(OCCO)cc1)N1[C@H](c3ccccc3)[C@H](c3ccccc3)OC(=O)[C@H]1[C@@H]2C(=O)N1CCN(c2ncccn2)CC1	i	i	.	i
CC(C)NC(=O)N(C)C[C@H]1OCc2cnnn2CCCC(=O)N([C@@H](C)CO)C[C@H]1C	i	i	i	i
C[C@H](CO)N1C[C@H](C)[C@@H](CN(C)Cc2ccc(C(F)(F)F)cc2)OCc2cnnn2CCCC1=O	i	+	i	i
C[C@H]1CN([C@@H](C)CO)C(=O)Cc2cc(N(C)C)ccc2O[C@@H]1CN(C)C	i	i	i	i
CNC[C@H]1Oc2ccc(NS(=O)(=O)c3ccccc3)cc2CC(=O)N([C@@H](C)CO)C[C@@H]1C	i	i	i	i

structure	p53 mut binder	Myc binder	ID4 SMM	STAT3 SMM
C[C@@H]1CN([C@H](C)CO)C(=O)c2cccc(NC(=O)C3CCOCC3)c2O[C@@H]1CN(C)C	i	i	i	i
C[C@H](CO)N1C[C@H](C)[C@@H](CN(C)C(=O)CCC(F)(F)F)OCCCC[C@H](C)Oc2ccc(NS(C)(=O)=O)cc2C1=O	i	+	i	i
C[C@@H]1CN([C@@H](C)CO)C(=O)c2cccc(NS(=O)(=O)c3ccccc3)c2O[C@H]1CN(C)C(=O)Nc1ccc(C(F)(F)F)cc1	i	i	i	i
Cc1cccnc1NC(=S)Nc1ccc(S(N)(=O)=O)cc1	i	i	i	i
C[C@H](CO)N1C[C@H](C)[C@H](CN(C)C(=O)NC2CCCCC2)Oc2ncc(-c3ccccc3)cc2C1=O	i	i	.	i
CCc1c(C)sc(NC(=S)NCc2cc(C)n(C)n2)c1C(=O)OC	i	i	i	i
COc1ccccc1-c1nnc(SCC(=O)Nc2ccccc2)o1	i	i	i	i
C[C@H](CO)N1C[C@H](C)[C@H](CN(C)Cc2ccc3c(c2)OCO3)Oc2c(NS(=O)(=O)c3cccs3)cccc2C1=O	i	i	i	i

structure	p53 mut binder	Myc binder	ID4 SMM	STAT3 SMM
C[C@H](CO)N1C[C@H](C)[C@@H](CN(C)C(=O)Nc2ccc(F)cc2)Oc2ccc(NC(=O)Cn3cnnn3)cc2C1=O	i	i	i	i
C[C@H]1CN([C@@H](C)CO)C(=O)c2cc(NC(=O)NC3CCCCC3)ccc2O[C@@H]1CN(C)Cc1ccncc1	i	i	i	i
CC(=O)OC1CC2(C)C3CC=C4C(CC(O)C(O)C4(C)C)C3(C)CCC2(C)C1C(C)(O)C(=O)CCC(C)(C)O (configuration not stated)	i	i	i	i
COc1cc([C@@H]2C3C=C([C@H]4Oc5cc(O)cc(O)c5C(=O)[C@@H]4O)[C@H]4[C@@H]2COC4(O)C3=O)ccc1O	i	i	i	i
C[C@@H]1CN([C@@H](C)CO)C(=O)c2cccc(NC(=O)Nc3cccc4ccccc34)c2O[C@H]1CN(C)S(=O)(=O)c1cccs1	i	i	i	i
Cc1ccc(S(=O)(=O)Nc2ccc3c(c2)C(=O)N([C@H](C)CO)C[C@H](C)[C@@H](CN(C)C(=O)Nc2c(C)noc2C)OCCCC[C@@H](C)O3)cc1	i	i	.	i
C[C@@H]1CN([C@@H](C)CO)C(=O)c2cc(NC(=O)Nc3cccc4ccccc34)ccc2O[C@@H]1CN(C)C	i	i	i	i
C[C@@H]1CN([C@H](C)CO)C(=O)Cc2cc(NC(=O)CCN3CCOCC3)ccc2O[C@H]1CN(C)S(=O)(=O)c1cn(C)cn1	i	i	i	i

structure	p53 mut binder	Myc binder	ID4 SMM	STAT3 SMM
O=C(NCCN1CCOCC1)C1COc2ccccc2O1 (configuration not stated)	i	i	i	i
C[C@H](CO)N1C[C@H](C)[C@@H](CN(C)S(=O)(=O)c2cn(C)cn2)Oc2c(NC(=O)Nc3cccc4ccccc34)cccc2C1=O	i	i	i	i
C[C@@H]1CN([C@@H](C)CO)C(=O)c2cccc(NS(=O)(=O)c3ccc(Cl)cc3)c2O[C@@H]1CN(C)S(=O)(=O)c1cn(C)cn1	i	i	i	i
CC(C)NC(=O)Nc1ccc2c(c1)C(=O)N([C@@H](C)CO)C[C@@H](C)[C@@H](CN(C)C(=O)Nc1ccc(F)cc1)OCCCC[C@@H](C)O2	i	i	.	i
CC(C)NC(=O)N(C)C[C@H]1Oc2ccc(NC(=O)Nc3ccccc3)cc2C(=O)N([C@@H](C)CO)C[C@H]1C	i	i	.	i
C[C@@H]1CCCCO[C@H](CN(C)C(=O)c2ccccc2)[C@@H](C)CN([C@@H](C)CO)C(=O)c2cc(NC(=O)c3ccccc3)ccc2O1	i	i	.	i
CNC[C@@H]1Oc2ccc(NS(=O)(=O)c3c(C)noc3C)cc2CC(=O)N([C@H](C)CO)C[C@@H]1C	i	i	i	i
C[C@H](CO)N1C[C@H](C)[C@H](CN(C)C(=O)Nc2ccc(C(F)(F)F)cc2)Oc2ccc(NC(=O)Nc3ccc4c(c3)OCO4)cc2C1=O	i	i	i	i

structure	p53 mut binder	Myc binder	ID4 SMM	STAT3 SMM
C[C@@H]1CN([C@H](C)CO)C(=O)c2cc(NC(=O)Nc3cccc4ccccc34)ccc2O[C@H]1CN(C)C(=O)Nc1ccc2c(c1)OCO2	i	i	i	i
CC(C)NC(=O)Nc1ccc2c(c1)C(=O)N([C@@H](C)CO)C[C@H](C)[C@H](CN(C)S(=O)(=O)c1cccs1)OCCCC[C@@H](C)O2	i	i	i	i
C[C@@H]1CN([C@@H](C)CO)C(=O)Cc2cc(NC(=O)C3CC3)ccc2O[C@H]1CN(C)Cc1ccc2c(c1)OCO2	i	i	i	i
O=C(Cn1cnc2ccccc2c1=O)Nc1ccc(S(=O)(=O)N2CCCC2)cc1	i	i	i	i
Cc1noc(C)c1NC(=O)Nc1ccc2c(c1)C(=O)N([C@@H](C)CO)C[C@@H](C)[C@@H](CN(C)C)O2	i	i	i	i
C[C@H](CO)N1C[C@H](C)[C@@H](CN(C)C(=O)Nc2ccc(F)cc2)Oc2ccc(N(C)C)cc2CC1=O	i	i	i	i
Cc1noc(C)c1S(=O)(=O)Nc1ccc2c(c1)C(=O)N([C@@H](C)CO)C[C@@H](C)[C@@H](CN(C)C(=O)NC(C)C)OCCCC[C@H](C)O2	i	i	i	i
C[C@@H]1CCCCO[C@H](CN(C)S(=O)(=O)c2ccc(Cl)cc2)[C@@H](C)CN([C@H](C)CO)C(=O)c2cc(NS(=O)(=O)c3ccc(Cl)cc3)ccc2O1	i	i	.	i

structure	p53 mut binder	Myc binder	ID4 SMM	STAT3 SMM
Cc1noc(C)c1NC(=O)Nc1cccc2c1O[C@@H](CN(C)C)[C@H](C)CN([C@H](C)CO)C2=O	i	i	i	i
C[C@H]1CCCCO[C@H](CN(C)C(=O)C2CCCCC2)[C@@H](C)CN([C@@H](C)CO)C(=O)c2cc(NC(=O)c3ccncc3)ccc2O1	i	i	i	i
CNC[C@H]1OCCCC[C@@H](C)Oc2ccc(NC(=O)NC(C)C)cc2C(=O)N([C@H](C)CO)C[C@@H]1C	i	i	i	i
C[C@@H]1CN([C@@H](C)CO)C(=O)Cc2cc(NC(=O)CCCCCC(=O)Nc3ccccc3N)ccc2O[C@H]1CN(C)Cc1ccccc1	i	i	.	i
CC(C)(C)c1cc(C(=O)CSc2nc3ccccc3[nH]2)cc(C(C)(C)C)c1O	i	i	i	i
CNC[C@@H]1OCCCC[C@H](C)Oc2ccc(NC(=O)Nc3ccc4c(c3)OCO4)cc2C(=O)N([C@@H](C)CO)C[C@@H]1C	i	i	+	i
Cc1noc(C)c1NC(=O)Nc1ccc2c(c1)C(=O)N([C@@H](C)CO)C[C@H](C)[C@H](CN(C)CC1CC1)O2	i	i	i	i
Cc1nnc(SCC(=O)Nc2ccc(Oc3ccccc3)cc2)s1	i	i	i	i
C[C@H]1CN([C@@H](C)CO)C(=O)c2cc(NC(=O)C3CC3)ccc2O[C@H]1CN(C)C(=O)Nc1cccc2ccccc12	i	i	i	i
COc1ccc(NC(=O)N(C)C[C@@H]2OCCCC[C@@H](C)Oc3ccc(N(C)C)cc3C(=O)N([C@H](C)CO)C[C@@H]2C)cc1	i	i	.	i
